From PubChem
eIF4H inh = inhibitors of RNA binding by human eIF4H; Q15056; eIF4H fluorescence polarization binding assay; inhibition, % at 35 µM; 290,000 compounds, 0.94% hits; AID 2012;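 active means 50% or more with normal probe brightness, or confirmed in later tests; about a fifth of its hits are not listed in these tables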;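 further: calls also rest on retests at 20 µM and on dose response follow-up; 0% = protein and probe with vehicle and 100% = probe without protein; strong numbers were not always called active; many hits fall short of the cut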
PABP polyA inh = blocks human PABP binding to poly(A) RNA | P11940 | inhibition, % at 35 µM | fluorescence polarization | AID 2014 | 290,000 compounds, 1% hits;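 active means 50% or more with normal probe brightness, or confirmed in later tests; about a fifth of its hits are not listed in these tables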;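 further: calls also rest on retests at 20 µM and on dose response follow-up; controls were probe without protein and protein plus probe with vehicle; some compounds called inactive have numbers as strong as hits; many hits fall short of the cut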
Target sequence (P11940 whole entry, looked up): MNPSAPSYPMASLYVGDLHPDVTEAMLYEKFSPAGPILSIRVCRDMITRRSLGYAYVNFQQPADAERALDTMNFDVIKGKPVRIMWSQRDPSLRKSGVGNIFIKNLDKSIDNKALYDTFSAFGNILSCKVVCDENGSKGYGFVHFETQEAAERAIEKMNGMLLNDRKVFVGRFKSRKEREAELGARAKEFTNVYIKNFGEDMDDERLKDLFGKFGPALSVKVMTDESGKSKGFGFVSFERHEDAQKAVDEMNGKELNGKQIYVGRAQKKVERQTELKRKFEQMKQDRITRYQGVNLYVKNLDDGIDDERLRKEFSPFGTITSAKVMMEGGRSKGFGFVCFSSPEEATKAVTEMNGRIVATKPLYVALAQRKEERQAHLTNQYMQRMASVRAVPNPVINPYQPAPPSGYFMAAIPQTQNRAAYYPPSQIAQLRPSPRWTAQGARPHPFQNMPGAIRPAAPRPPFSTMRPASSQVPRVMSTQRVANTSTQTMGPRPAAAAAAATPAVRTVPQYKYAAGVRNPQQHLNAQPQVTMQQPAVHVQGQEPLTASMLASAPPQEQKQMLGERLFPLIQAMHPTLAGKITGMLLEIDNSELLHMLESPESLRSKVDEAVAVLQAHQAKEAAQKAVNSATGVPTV
CSC inhib = blocks cancer stem cells; cancer stem cell-like cells viability, luminescence; inhibition, % at 7.5 µM; 300,000 compounds, 1.1% hits; AID 2717;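 active means mean at 75% or more and at least half the replicates too; tested in HMLE shEcad cells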;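 further: 0% = median of negative and 100% = median of positive control wells; the first replicate is given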
MT1-MMP act inh = inhibitors of human MT1-MMP activation; 360,000 compounds, 0.061% hits; HT1080 RFP-PRO-GFP cells, GFP/RFP ratio fluorescence, overnight; percent of plate control window, DMSO zero; GFP/RFP ratio change, % at 20 µM; AID 651647; P50281;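 active means GFP/RFP ratio change of at least 30% with cell ATP level not reduced by more than half and red fluorescence within 50% of control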; further: strong numbers were not always called active
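Assay system – RFP-PRO-GFP reporter HT1080 cells · Compound dosing – single dose of 20 µM compound, 1% DMSO final · Incubation – overnight compound exposure at 37 °C · Measure – GFP/RFP fluorescence ratio · Benchmarks – DMSO wells and RFP-L50D-GFP cells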
Yeast UUG start = alters start codon recognition fidelity in yeast; S. cerevisiae UUG-firefly luciferase reporter, luminescence/redox ratio; activity score, % at 18.7 µM; 350,000 compounds, 0.13% hits; AID 602363;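 active means replicate mean at a twofold rise or more, about +100% in these data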;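 further: firefly luciferase made from a UUG start codon reports start codon fidelity; reporter light over untreated wells divided by growth signal over untreated wells; some hits fall short of that in this replicate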
Rce1 inhib = blocks yeast Ras-converting enzyme | Q03530 | yeast membranes, quenched prenylated peptide cleavage fluorescence | calls only | 290,000 compounds, 0.27% hits | AID 2563;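 active means fall in fluorescence gain of 50% or more versus controls, with final raw signal at or below 3038400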;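 further: plate controls were neutral control wells for no effect and wells lacking membranes for full effect; tested at 10 µM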
HIV Env fusion = HIV envelope-mediated fusion inhibition | HeLa-JRFL Env/CEM21 cell fusion, luciferase | inhibition, % at 12.3 µM | 360,000 compounds, 1.1% hits;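 active means mean replicate inhibition score of at least 50 and every replicate individually at or above 50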;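 further: 0% = plate neutral controls and 100% = maraviroc near 300 nM; one replicate is shown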
eIF4H inh retest = also measured in eIF4H inh; calls as there; inhibition, %; compound at 20 µM; confirmation average;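 mean of two retest wells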
PABP polyA inh retest = also measured in PABP polyA inh; calls as there; inhibition, %; compound at 20 µM; confirmation repeats;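 mean of two retest wells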
MT1-MMP act inh RFP = second read-out of MT1-MMP act inh, no call of its own (marks repeat the call); RFP signal change, %; measured here: RFP expression control read;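 0 = vehicle wells; hits needed this value within 50% of zero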
Numbers without * were called inactive; i = inactive; / = not tested or not shown. The list is partial; rates above refer to the full screens.

SMILES | eIF4H inh | PABP polyA inh | CSC inhib | MT1-MMP act inh | MT1-MMP act inh RFP | Yeast UUG start | Rce1 inhib | HIV Env fusion | others
COC(=O)C1CC(=O)N(c2ccc(OCc3ccccc3Cl)cc2)C1 (configuration not stated) | 102.9* | 43.9* | -7.4 | 4.8 | 1.7 | -9.5 | i | 10.8 | eIF4H inh retest=92.7*;PABP polyA inh retest=64.1*
CN=C1SC(CC(=O)Nc2cc(Cl)ccc2Cl)C(=O)N1C (configuration not stated) | 1.7 | -4.9 | -13.0 | 5.0 | 4.9 | -12.0 | i | 2.9
COc1cc(N2C(=O)c3ccccc3C2=O)c(Cl)cc1C(=O)OCC(=O)N(C)C | -0.8 | 1.2 | 4.8 | 3.3 | 4.4 | / | i | 4.2
Cc1cc(O)c2/c(=N\N)c(-c3csc(C)n3)coc2c1 | 2.6 | 6.6 | 1.3 | -0.3 | -2.3 | 1.1 | i | 13.5
O=Cc1cn(-c2ccccc2)nc1-c1ccc2c(c1)OCCO2 | 4.2 | -3.4 | 10.4 | -2.8 | -3.6 | 5.7 | / | /
COc1cc(C(=O)NCCOc2ccccc2C)cc(OC)c1OC | -1.3 | -4.6 | 3.7 | 3.4 | 4.5 | -9.3 | i | -39.0
CC(C)(CO)NCc1c(OCc2ccc(Cl)cc2)ccc2ccccc12 | 6.1 | -0.9 | 24.2 | -3.1 | -2.4 | -5.6 | i | 11.2
COC(=O)C/C(N)=C(\C#N)C(=O)OC | -2.2 | -6.5 | -6.7 | -4.6 | -0.4 | -13.8 | i | -11.1
Cc1cccc(NC(=O)CS(=O)(=O)Cc2ccccc2)n1 | 1.7 | -5.7 | -10.6 | 14.8 | -3.6 | -22.0 | i | -34.8
O=C(CNC(=O)C1COc2ccccc2O1)N/N=C\c1ccccc1Cl (configuration not stated) | / | / | 7.7 | 1.9 | -4.8 | -7.5 | i | -1.6
COc1ccc(-c2noc(CN(C(=O)c3ccc4c(c3)OCO4)C(C)C)n2)cc1 | -4.7 | 7.7 | 3.4 | -0.8 | 0.9 | 6.4 | i | -0.3
O=C(NCCCO)c1ccc2[nH]c3ccccc3c2c1 | 2.4 | -1.8 | -6.6 | 2.4 | -0.7 | -16.1 | i | /
CS(=O)(=O)c1ccc(Nc2nc(C(N)CCc3ccccc3)cs2)cc1 (configuration not stated) | / | / | / | -3.1 | -2.3 | -0.9 | / | 5.9
O=C(COc1ccccc1Cl)NNC(=O)c1cc(S(=O)(=O)N2CCOCC2)ccc1N1CCCC1 | -8.6 | 6.7 | -4.1 | 0.5 | 0.1 | -11.1 | i | -4.2
CSc1ccccc1NS(=O)(=O)c1ccc2c(c1)OCCO2 | 3.0 | 2.9 | 1.9 | -1.9 | -5.0 | -7.7 | i | /
Cc1cc(C)cc(NC(=O)CC2Oc3ccc(C)cc3NC2=O)c1 (configuration not stated) | 1.5 | -2.7 | -4.1 | 5.1 | 0.1 | -3.3 | i | 4.5
Cc1ccc(/C=N/NC(=O)c2nnn(-c3nonc3N)c2C)o1 | -5.7 | -18.2 | -4.3 | 0.6 | 2.1 | -13.4 | i | -7.4
Cn1c(SCC(=O)NNC(=O)Cc2ccccc2)nnc1-c1ccccc1 | -9.8 | -4.9 | -5.0 | 1.9 | 3.2 | / | i | /
Cc1[nH]c(=O)[nH]c(=O)c1S(=O)(=O)N1CCC(C(=O)N2CCN(c3cccc(C(F)(F)F)c3)CC2)CC1 | -6.2 | 13.9 | -13.5 | 3.2 | -3.8 | / | i | 2.5
Cc1ccc(CC2CC(=O)N(c3nc4ccccc4s3)C2=O)cc1 (configuration not stated) | 0.9 | -10.5 | -3.5 | 1.3 | -1.1 | / | i | 0.7
CC(=O)Nc1nc(C(F)(F)F)cs1 | 0.2 | -11.3 | -6.6 | 0.9 | 8.1 | -2.8 | i | /
O=C(Nc1ccc2c(c1)OCCO2)C(c1ccnc2ccccc12)N1CCN(C/C=C/c2ccccc2)CC1 (configuration not stated) | / | / | / | 4.0 | -7.1 | 10.2 | / | -15.9
CCc1ccc(/C=N/NC(=O)c2nnn(-c3nonc3N)c2CN2CCc3ccccc32)cc1 | 2.9 | 8.7 | -4.7 | 0.6 | 1.0 | 38.7 | i | 24.7
Cc1ccccc1-n1nc(SCC(=O)O)sc1=S | -4.6 | -9.4 | -7.3 | 1.2 | 7.3 | -12.4 | i | 5.2
Cc1cc(C(=O)COC(=O)CN=C2NS(=O)(=O)c3ccccc32)c(C)n1CCc1ccc(Cl)cc1 | 0.3 | -8.1 | 10.2 | -5.4 | 1.6 | 0.4 | i | /
(further entries)
SMILES | eIF4H inh | PABP polyA inh | CSC inhib | MT1-MMP act inh | MT1-MMP act inh RFP | Yeast UUG start | Rce1 inhib | HIV Env fusion | others
Cc1ccc2c(c1)N(CC(=O)N1CCCCC1c1cccnc1)C(=O)CO2 (configuration not stated) | 10.0 | -7.1 | 2.8 | 1.6 | -0.5 | -10.8 | i | 18.8
COc1ccc(OC)c(-c2nnc3n2N=C(c2ccc(OC(F)F)c(OCC4CC4)c2)CS3)c1 | / | / | 76.5* | 15.2 | -5.3 | -18.3 | / | -12.2
COc1ccc(S(=O)(=O)NNC(=O)c2ccc([N+](=O)[O-])cc2)cc1 | -18.1 | 9.8 | 5.6 | / | / | -12.5 | i | 8.7
Cc1cc(NC(=O)COC(=O)c2cc3c(s2)CCC(C)C3)no1 (configuration not stated) | -10.8 | -3.0 | 0.4 | 0.4 | -8.4 | -16.5 | i | 13.9
Nc1cc(N)nc(SCC(=O)NCCC2=CCCCC2)n1 | / | / | -14.6 | 1.1 | 1.2 | -18.4 | i | 3.7
CCN1C(=O)/C(=C/c2ccc(OC)c(OC)c2)N=C1SCC(=O)NCc1ccco1 | 12.5 | -3.2 | -5.8 | 3.4 | 4.8 | -12.6 | i | /
Fc1ccc(-n2nnc(-c3cccnc3)n2)cc1 | -8.0 | 1.3 | -20.4 | -5.9 | 1.8 | -27.1 | i | -44.1
COc1ccc(CNc2ncccc2[N+](=O)[O-])cc1 | -2.1 | -7.5 | 4.9 | -3.3 | 2.1 | -7.6 | i | -9.9
O=C(c1ccc(C(F)(F)F)cc1)C1CCCN(C(=O)CCN2CCCO2)C1 (configuration not stated) | -4.1 | 4.3 | 3.0 | -0.8 | 1.4 | -14.5 | i | 17.0
COCc1ccc(C(=O)N2CCCC(N(C)CCc3ccc(OC)c(OC)c3)C2)s1 (configuration not stated) | -10.9 | -6.6 | -4.2 | -2.2 | 0.9 | -6.5 | i | -40.5
O=S(=O)(c1cccc(NC(=S)N2CCN(c3ccccc3)CC2)c1)C(F)F | 0.6 | 1.5 | 12.7 | 1.8 | -1.7 | / | / | 24.7
C/C(=N\Nc1nncc2ccccc12)c1ccc(Cl)c([N+](=O)[O-])c1 | -8.0 | 2.0 | -6.8 | -0.7 | -0.7 | -12.2 | i | -78.0
Cc1ccc(-n2sc3cc(F)ccc3c2=O)c(C)c1 | / | / | / | 20.5 | -21.6 | -27.8 | / | 60.8
CNC(=O)c1ccccc1Nc1ccc(SC(F)F)cc1 | -6.3 | -5.2 | -11.5 | -2.7 | -3.5 | 4.2 | i | -20.5
COc1ccc(CNC(=O)CN(Cc2ccccc2F)C(=O)c2csnn2)cc1 | -0.4 | 9.1 | -4.5 | -2.0 | 1.9 | -4.6 | i | -1.1
CCc1ccc(C(=O)/C=C/c2ccc([N+](=O)[O-])o2)cc1 | 2.1 | 10.3 | 8.2 | -7.1 | -2.2 | / | i | /
O=C(CSc1nc2ccccc2c(=O)[nH]1)Nc1ccccc1O | 0.6 | 5.0 | 5.8 | 0.5 | 0.6 | -8.4 | i | -0.2
CCc1ccccc1N1C(=O)c2ccccc2S1(=O)=O | 0.4 | 4.9 | / | 3.1 | -4.8 | / | i | -5.2
COc1cc(S(=O)(=O)NC2CC(C)(C)NC(C)(C)C2)c(OC)cc1Cl | 3.0 | 4.6 | -2.4 | -2.1 | 2.0 | -11.6 | / | -2.1
COC(=O)C(CCSC)NC(=O)c1cccc([N+](=O)[O-])c1 (configuration not stated) | -5.3 | 9.6 | / | -2.2 | 4.0 | -16.7 | i | -16.7
CCOCCCN(C)C1CCN(C(=O)c2oc3ccccc3c2NC(=O)c2cccc([N+](=O)[O-])c2)CC1 | -18.2 | -5.2 | -6.7 | 0.1 | -0.9 | 0.2 | i | -2.5
COCC(=O)NC1CCCCCC1 | -1.0 | 9.6 | 0.9 | 4.1 | 8.3 | / | i | -19.1
Cc1csc(SCC(=O)Nc2sccc2C(N)=O)n1 | 4.3 | 4.5 | 9.4 | 5.7 | 2.2 | / | i | -4.3
CCN(C[C@H]1N[C@@](CC)(C(=O)OC)[C@H]2C(=O)N(C)C(=O)[C@@H]12)C(=O)Nc1ccccc1 | / | / | / | -1.1 | 3.9 | -20.3 | / | -108.9
CCOc1ccc(N/C(=N/c2nc(C)cc(C)n2)NC(C)=O)cc1 | 4.8 | 9.0 | 0.2 | 3.9 | -2.9 | -19.3 | i | -1.2
The list goes on.
SMILES | eIF4H inh | PABP polyA inh | CSC inhib | MT1-MMP act inh | MT1-MMP act inh RFP | Yeast UUG start | Rce1 inhib | HIV Env fusion | others
COc1cccc(CN2CCN(C(=O)c3cc(-c4ccncc4)nc4ccc(C)cc34)CC2)c1 | -9.1 | -9.5 | 3.3 | -8.4 | -3.4 | -8.0 | i | -3.2
CCN(CC)S(=O)(=O)c1cc(NC(=O)CN2C(=O)NC(C)(c3ccccc3)C2=O)ccc1C (configuration not stated) | -3.0 | 7.6 | 5.6 | 4.0 | -0.6 | -8.6 | i | 6.1
COc1ccccc1CC(=O)N(Cc1ccccc1)c1ccc(C)cc1 | 2.4 | -13.1 | 6.3 | -2.5 | -5.2 | -5.6 | i | 8.9
COc1cccc(NC(=O)c2cccnn2)c1 | -6.0 | 2.7 | -32.2 | -1.4 | -0.6 | -15.6 | i | -16.0
O=C(COc1ccccc1[N+](=O)[O-])N(Cc1cccc(Br)c1)C1CCS(=O)(=O)C1 (configuration not stated) | -4.9 | -4.0 | 8.1 | -4.0 | 0.1 | 0.9 | i | -2.1
CCCCn1c(N)c(N(Cc2ccccc2OC)C(=O)COc2ccccc2C#N)c(=O)[nH]c1=O | -5.9 | 6.7 | -9.9 | 8.3 | 2.3 | -13.0 | / | 0.5
O=C(CS(=O)(=O)c1ccc(F)cc1)N1CCN(c2ccccc2)CC1 | / | / | -0.6 | 2.6 | -0.5 | -2.4 | i | 2.9
CCC(CC)C(=O)Nc1ccc([N+](=O)[O-])cn1 | 5.9 | 17.4 | -7.6 | 8.8 | 6.0 | -10.8 | i | 8.5
CC(C)Oc1ccc(C(=O)Nc2ccccc2N2CCCC2)cc1 | 10.5 | 13.0 | 64.6 | 9.1 | 5.1 | -1.8 | i | /
CC(Oc1ccccc1)C(=O)N/N=C/c1ccccn1 (configuration not stated) | 0.7 | -7.1 | -5.3 | 3.1 | 7.5 | / | i | 7.7

Fetched one by one from the entries so far (five):
SMILES | eIF4H inh | PABP polyA inh | CSC inhib | MT1-MMP act inh | MT1-MMP act inh RFP | Yeast UUG start | Rce1 inhib | HIV Env fusion | others
COc1cccc(NC(=O)c2cccnn2)c1 | -6.0 | 2.7 | -32.2 | -1.4 | -0.6 | -15.6 | i | -16.0
COc1cccc(CN2CCN(C(=O)c3cc(-c4ccncc4)nc4ccc(C)cc34)CC2)c1 | -9.1 | -9.5 | 3.3 | -8.4 | -3.4 | -8.0 | i | -3.2
O=C(CS(=O)(=O)c1ccc(F)cc1)N1CCN(c2ccccc2)CC1 | / | / | -0.6 | 2.6 | -0.5 | -2.4 | i | 2.9
COc1ccccc1CC(=O)N(Cc1ccccc1)c1ccc(C)cc1 | 2.4 | -13.1 | 6.3 | -2.5 | -5.2 | -5.6 | i | 8.9
CC(C)Oc1ccc(C(=O)Nc2ccccc2N2CCCC2)cc1 | 10.5 | 13.0 | 64.6 | 9.1 | 5.1 | -1.8 | i | /
